Vaccinia stage – blocks a specific stage of Vaccinia orthopoxvirus infection. hit rate 0.01% among 89,000. activity change (mCherry), % (concentration not given with the values). Vaccinia-infected cells, mCherry/Venus stage reporter fluorescence; stronger effect = lower value; some inactives read as strong as hits. AID 1053133;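 active = mCherry past -33% and 40 or more points under the early reporter, replicates agreeing; inconclusive = past -33% without that gap or agreement; tested in A549 cells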;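 also: scaled between vehicle wells and reference inhibitor wells; 23 nL library stock went into each well; one replicate is shown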
Vaccinia stage Venus – recorded beside Vaccinia stage, whose call it bears; activity change (Venus), %; measured here: Venus reporter, other viral stage;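 negative = less Venus signal; first of two replicates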
An asterisk follows results filed as active; ? = inconclusive; / = not tested or not shown. The list is partial (hit frequency here may not be typical).

SMILES	Vaccinia stage	Vaccinia stage Venus
Cc1noc(C)c1NC(=O)N(C)C[C@H]1Oc2c(NC(=O)NC3CCCCC3)cccc2C(=O)N([C@H](C)CO)C[C@H]1C	7.7	2.9
CO[C@@H]1CN(C)C(=O)c2cc(NC(=O)Nc3cc(F)ccc3F)ccc2OC[C@@H](C)N(C(=O)c2cnccn2)C[C@@H]1C	4.3	2.7
O=C(C[C@H]1C[C@@H]2c3cc(NS(=O)(=O)c4ccc(F)cc4)ccc3O[C@@H]2[C@@H](CO)O1)N1CCOCC1	20.6	12.2
C[C@@H]1CN([C@H](C)CO)C(=O)c2cc(NS(=O)(=O)c3cccs3)ccc2O[C@@H]1CN(C)S(=O)(=O)c1ccc(Cl)cc1	-5.6	-11.8
O=C(Nc1ccc2c(c1)[C@H]1C[C@H](CC(=O)N3CCc4ccccc4C3)O[C@@H](CO)[C@H]1O2)C1CCC1	8.9	4.9
O=C(c1ccccn1)N1CC2(C1)[C@H](c1ccccc1)[C@H](CO)N2C(=O)C1CC1	1.7	2.7
O=C(NCC[C@@H]1CC[C@H](NC(=O)c2ccncc2)[C@@H](CO)O1)Nc1ccc(Cl)cc1	3.0	4.5
COc1cccc(CNC(=O)[C@H]2[C@H](CO)[C@H]3Cn4c(ccc(-c5ccncc5)c4=O)[C@@H]2N3C(C)=O)c1	10.1	17.6
O=C(C1CCOCC1)N1CC(=O)N2[C@@H](CO)[C@@H](c3ccc(C#CC4CC4)cc3)[C@@H]2C1	1.8	6.2
CC(C)NC(=O)Nc1ccc2c(c1)C(=O)N([C@@H](C)CO)C[C@H](C)[C@H](CN(C)Cc1ccc(C(=O)Nc3ccccc3N)cc1)O2	-13.4	-6.4
CN1c2ccc(-c3cccc(F)c3)cc2[C@H]2[C@H](CCN2C(=O)C2CCOCC2)[C@H]1CO	-18.8	-16.7
CC=Cc1ccc2n(c1=O)C[C@@H]1[C@@H](CO)[C@H](C(=O)N3CCCCC3)[C@H]2N1C(=O)C1CCC1 (mixture of isomers)	-0.5	-1.1
O=C(CN1CCOCC1)N[C@H]1CC[C@@H](CCn2cc(C3CCCC3)nn2)O[C@@H]1CO	6.1	5.7
C[C@@H]1CN([C@H](C)CO)C(=O)c2cc(NC(=O)NC3CCCCC3)ccc2O[C@@H](C)CCCCO[C@H]1CN(C)C(=O)Nc1ccc(F)cc1	-23.0	-15.4
CO[C@@H]1CN(C)C(=O)c2ccc(NC(=O)C3CC3)cc2OC[C@@H](C)N(C(=O)Cc2ccccn2)C[C@@H]1C	10.3	9.5
Cc1noc(C)c1NC(=O)Nc1ccc2c(c1)C(=O)N([C@@H](C)CO)C[C@@H](C)[C@H](CN(C)S(=O)(=O)c1cccs1)OCCCC[C@@H](C)O2	25.9	13.7
CCC(=O)N1C[C@@H](C)[C@H](OC)CN(C)C(=O)c2cc(NC(=O)C3CC3)ccc2OC[C@@H]1C	8.6	3.0
C[C@H](CO)N1C[C@H](C)[C@H](CN(C)C(=O)c2ccc(F)cc2)Oc2ncc(C3=CCCC3)cc2C1=O	9.1	8.8
O=C(Nc1ccccc1F)N1CCCCN2[C@@H](CO)[C@@H](c3ccc(C#Cc4cccnc4)cc3)[C@@H]2C1	?	/
O=C(CCN1CCCCC1)N[C@H]1CC[C@H](CCNC(=O)c2cc(Cl)cc(Cl)c2)O[C@@H]1CO	-8.7	-1.6
C[C@@H]1CN([C@H](C)CO)C(=O)c2cccc(NC(=O)Nc3cccc4ccccc34)c2O[C@H]1CN(C)S(=O)(=O)c1cn(C)cn1	5.7	3.6
CCCNC(=O)N1[C@@H](C#N)[C@H](c2ccc(-c3cccnc3)cc2)[C@@H]1CO	-7.1	-8.9
C[C@H]1CN([C@@H](C)CO)C(=O)Cc2cc(NS(=O)(=O)c3ccc(Cl)cc3)ccc2O[C@H]1CN(C)C(=O)Nc1ccc(C(F)(F)F)cc1	-12.4	-0.8
C[C@H](CO)N1C[C@H](C)[C@@H](CN(C)S(=O)(=O)c2ccc3c(c2)OCCCO3)OCc2cn(nn2)CCCC1=O	9.7	7.8
COCC#Cc1cnc2c(c1)C(=O)N([C@H](C)CO)C[C@@H](C)[C@@H](CN(C)C(=O)c1ccc(F)cc1)O2	14.8	12.2

Following part
SMILES	Vaccinia stage	Vaccinia stage Venus
CC(C)c1cn(CC[C@@H]2CC[C@@H](NS(=O)(=O)c3ccc(Cl)cc3)[C@@H](CO)O2)nn1	-0.9	-2.7
O=C(c1ccc2c(c1)OCO2)N1CC(=O)N2[C@H](C1)[C@H](c1ccc(-c3ccccc3)cc1)[C@@H]2CO	-33.0	-29.5
COc1ccc2c3c([nH]c2c1)[C@@H](CO)N(Cc1ccc(Cl)cc1)CC31CCN(Cc2nccs2)CC1	-24.9	-18.2
CC(C)NC(=O)Nc1ccc2c(c1)C(=O)N([C@@H](C)CO)C[C@H](C)[C@H](CN(C)C(=O)Nc1ccccc1)O2	15.8	15.9
COc1ccc(CN(C)C[C@H]2OCCCC[C@@H](C)Oc3ccc(NC(=O)Nc4ccc(OC)cc4)cc3C(=O)N([C@H](C)CO)C[C@H]2C)cc1	?	/
COc1ccc(CN(C)C[C@@H]2Oc3ccc(NC(=O)Nc4c(C)noc4C)cc3CC(=O)N([C@@H](C)CO)C[C@H]2C)cc1	11.2	8.8
CO[C@@H](CN(C)Cc1nccs1)[C@H](C)CN([C@H](C)CO)S(=O)(=O)c1ccc(C)cc1	-11.7	-8.5
O=C(c1cccc(F)c1)N1C[C@@H]2[C@H](c3ccccc31)[C@@H](CO)N2C(=O)c1ccccn1	-2.0	2.3
CCCNC(=O)Nc1ccc2c(c1)OC[C@H](C)N(Cc1ccc(-c3ccccn3)cc1)C[C@H](C)[C@@H](OC)CN(C)C2=O	-24.8	-20.0
COc1ccc(CN(C)C[C@H]2OCCCC[C@@H](C)Oc3ccc(NC(=O)c4ccccc4)cc3C(=O)N([C@H](C)CO)C[C@H]2C)cc1	-16.1	-10.4
C[C@@H]1CN([C@@H](C)CO)C(=O)c2c(c3ccccc3n2C)-c2ccccc2CO[C@H]1CN(C)C(=O)[C@@H]1CCCN1C	-2.0	-11.8
COc1ccc(NC(=O)N[C@@H]2C=C[C@H](CC(=O)NCc3ccccn3)O[C@H]2CO)cc1	2.4	-1.5
O=C(C[C@H]1C[C@@H]2c3cc(NC(=O)C4CCOCC4)ccc3O[C@@H]2[C@H](CO)O1)NCc1ccc(Cl)cc1	8.7	7.9
C#CCNC(=O)C1=C[C@H](c2coc3ccccc3c2=O)C[C@H](OCCCCO)O1	-0.5	-0.2
C[C@@H]1CN([C@H](C)CO)S(=O)(=O)c2ccc(/C=C/c3ccccc3)cc2O[C@H]1CN(C)C(=O)C1CC1	?	/
CCCN1[C@@H]2c3ccc(C4=CCCCC4)c(=O)n3C[C@H]1[C@H](CO)[C@H]2C(=O)NCCc1ccncc1	18.6	10.5
Cc1noc(C)c1NC(=O)N(C)C[C@H]1OCCCC[C@@H](C)Oc2ccc(NC(=O)Nc3ccc(F)cc3)cc2C(=O)N([C@H](C)CO)C[C@@H]1C	19.9	12.1
O=C(Nc1ccccc1)N1CC(=O)N2[C@H](CO)[C@@H](c3ccc(C#CC4CCCC4)cc3)[C@@H]2C1	-24.1	-21.2
O=C(C[C@@H]1C[C@H]2c3cc(NC(=O)c4cccnc4)ccc3O[C@H]2[C@@H](CO)O1)NC1CCCCC1	-6.7	1.3
O=C(C1CCCC1)N1CC(=O)N2[C@H](C1)[C@@H](c1ccc(C#CCc3ccccc3)cc1)[C@@H]2CO	1.6	5.0
C[C@H]1CN([C@@H](C)CO)C(=O)Cc2cc(N(C)C)ccc2O[C@H]1CN(C)S(=O)(=O)c1ccc(Cl)cc1	-15.5	-9.7
O=C(c1cccc(F)c1)N1CC(=O)N2[C@H](CO)[C@H](c3ccc(-c4ccccc4F)cc3)[C@H]2C1	-16.2	-13.5
CO[C@@H]1CN(C)C(=O)c2cc(NS(=O)(=O)c3ccc(Cl)cc3)ccc2OC[C@@H](C)N(C(=O)Cc2cccnc2)C[C@H]1C	22.9	17.6
COc1ccc(CN(C)C[C@H]2OCCCC[C@@H](C)Oc3ccc(NC(=O)CCCN(C)C)cc3C(=O)N([C@@H](C)CO)C[C@@H]2C)cc1	0.7	-1.8
COc1ccc(S(=O)(=O)N(C)C[C@@H]2Oc3c(NS(=O)(=O)c4ccc(C)cc4)cccc3C(=O)N([C@H](C)CO)C[C@@H]2C)cc1	-26.1	-12.4

In a second layout: results already given
structure | Vaccinia stage | Vaccinia stage Venus
Cc1noc(C)c1NC(=O)N(C)C[C@H]1Oc2c(NC(=O)NC3CCCCC3)cccc2C(=O)N([C@H](C)CO)C[C@H]1C | 7.7 | 2.9
CO[C@@H]1CN(C)C(=O)c2cc(NC(=O)Nc3cc(F)ccc3F)ccc2OC[C@@H](C)N(C(=O)c2cnccn2)C[C@@H]1C | 4.3 | 2.7

Additional compounds:
SMILES	Vaccinia stage	Vaccinia stage Venus
CC(C)NC(=O)N(C)C[C@H]1Oc2c(NC(=O)C3CC3)cccc2C(=O)N([C@@H](C)CO)C[C@H]1C	15.4	19.3
COCC#Cc1ccc2c(c1)O[C@@H](CN(C)S(=O)(=O)c1ccc(OC)cc1)[C@H](C)CN([C@@H](C)CO)S2(=O)=O	-24.4	-22.4
CCS(=O)(=O)N1CC2(C1)CN(S(=O)(=O)c1ccc(C)cc1)[C@H](CO)c1[nH]c3cc(OC)ccc3c12	12.2	10.9
C[C@H](CO)N1C[C@H](C)[C@@H](CN(C)C(=O)Nc2ccccc2)Oc2cc(Br)ccc2S1(=O)=O	5.7	8.1
C[C@@H]1CN([C@H](C)CO)C(=O)c2cc(C3=CCCCC3)cnc2O[C@H]1CN(C)C(=O)c1ccccc1	6.6	3.1
CCNC(=O)[C@H]1[C@H](CO)[C@H]2Cn3c(ccc(-c4ccccc4)c3=O)[C@H]2N1Cc1ccccn1	1.4	-1.4
C[C@H](CO)N1C[C@H](C)[C@H](CN(C)S(=O)(=O)c2ccccc2)Oc2c(NC(=O)C3CC3)cccc2C1=O	4.1	10.4
C[C@@H]1CN([C@@H](C)CO)C(=O)Cc2cc(NC(=O)CCCN(C)C)ccc2O[C@@H]1CN(C)CC1CCCCC1	-2.4	9.6
N#Cc1cccc(-c2ccc3c(c2)[C@@H]2[C@@H](CCN2S(=O)(=O)c2ccccc2F)[C@H](CO)N3)c1	-10.8	-15.3
Cc1cccc(-c2ccc([C@@H]3[C@@H](CO)N4CCCCN(C(=O)c5ccc6c(c5)OCO6)C[C@H]34)cc2)c1	-18.4	-9.2
COc1ccc(NC(=O)Nc2cccc3c2O[C@H](CN(C)Cc2ccc(C(=O)Nc4ccccc4N)cc2)[C@H](C)CN([C@H](C)CO)C3=O)cc1	1.6	-5.8
C[C@@H]1CN([C@@H](C)CO)C(=O)Cc2cc(NC(=O)c3ccncc3)ccc2O[C@@H]1CN(C)Cc1ccccc1	12.9	4.8
C[C@H]1CN([C@@H](C)CO)C(=O)c2cccc(NC(=O)CCCCCC(=O)Nc3ccccc3N)c2O[C@H]1CN(C)Cc1ccc(Cl)c(Cl)c1	?	/
C[C@@H]1CN([C@@H](C)CO)C(=O)CCCn2cc(nn2)CO[C@@H]1CN(C)C(=O)Nc1ccc2c(c1)OCO2	0.6	3.7
CO[C@@H]1CN(C)C(=O)c2ccc(NC(=O)C3CCC3)cc2OC[C@H](C)N(C(=O)NC(C)C)C[C@H]1C	-1.8	-4.6
C[C@@H]1CCCCO[C@H](CN(C)S(=O)(=O)c2ccc(F)cc2)[C@@H](C)CN([C@H](C)CO)C(=O)c2cc(NC(=O)CCCCCC(=O)Nc3ccccc3N)ccc2O1	11.9	13.4
CNC[C@@H]1Oc2c(NC(=O)NC3CCCCC3)cccc2C(=O)N([C@H](C)CO)C[C@@H]1C	7.3	8.5
O=C(c1cccnc1)N1C[C@@H]2[C@H](c3ccccc31)[C@@H](CO)N2C(=O)C1CCOCC1	-0.8	11.1
CO[C@@H]1CN(C)C(=O)c2cc(NC(=O)c3cnccn3)ccc2OC[C@@H](C)N(CCC(F)(F)F)C[C@H]1C	-9.9	-10.9
CO[C@H]1CN(C)C(=O)c2ccc(NC(=O)C3CCCC3)cc2OC[C@@H](C)N(CC2CC2)C[C@H]1C	1.9	7.4
COc1cccc(S(=O)(=O)Nc2ccc3c(c2)C(=O)N(C)C[C@H](OC)[C@@H](C)CN(Cc2ccccc2F)[C@@H](C)CO3)c1	-18.7	-16.9
C[C@@H]1CN([C@@H](C)CO)C(=O)c2cc(NS(=O)(=O)c3cn(C)cn3)ccc2O[C@@H]1CN(C)C(=O)Nc1ccc2c(c1)OCO2	4.0	3.0
Cc1noc(C)c1NC(=O)N1C[C@@H](O)COC[C@H]2O[C@@H](CC(=O)NCC3CCCCC3)CC[C@@H]21	9.7	12.4
COCC#Cc1ccc2c(c1)O[C@@H](CN(C)Cc1cncnc1)[C@H](C)CN([C@H](C)CO)S2(=O)=O	26.3	10.6

A different layout for five compounds above.
structure | Vaccinia stage | Vaccinia stage Venus
CCS(=O)(=O)N1CC2(C1)CN(S(=O)(=O)c1ccc(C)cc1)[C@H](CO)c1[nH]c3cc(OC)ccc3c12 | 12.2 | 10.9
C[C@H](CO)N1C[C@H](C)[C@@H](CN(C)C(=O)Nc2ccccc2)Oc2cc(Br)ccc2S1(=O)=O | 5.7 | 8.1
C[C@@H]1CN([C@H](C)CO)C(=O)c2cc(C3=CCCCC3)cnc2O[C@H]1CN(C)C(=O)c1ccccc1 | 6.6 | 3.1
CCNC(=O)[C@H]1[C@H](CO)[C@H]2Cn3c(ccc(-c4ccccc4)c3=O)[C@H]2N1Cc1ccccn1 | 1.4 | -1.4
C[C@H](CO)N1C[C@H](C)[C@H](CN(C)S(=O)(=O)c2ccccc2)Oc2c(NC(=O)C3CC3)cccc2C1=O | 4.1 | 10.4

Compound activity: PubChem BioAssay, Broad Institute
